Screening results from PubChem BioAssay.
Mtb bLac sens: beta-lactam sensitization of Mtb H37Rv, H37Rv; inhibition, % at 25 µM; M. tuberculosis H37Rv growth with meropenem, percent inhibition; hits of this screen are not shown here; 330,000 compounds, 0.27% hits;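 active = about 74% or more and at least 40 points above the plate without the antibiotic, then above 30% in a dose series; inconclusive = first-round hits that could not be retested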;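 note: growth measured after seven days incubation then overnight dye step; 0% = bacteria only wells and 100% = bacteria with antibiotic; twin plates without the antibiotic show which effects depend on it; some results filed as inactive read as strong as hits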
* hit, by the source's call; ? = inconclusive.

> CN(C(=O)c1ccc(NC(=O)Cc2cccc(NC(=O)C3CCCN(C(=O)C4CCCCC4)C3)c2)cc1)C1CCCC1 (stereo not drawn)
  Mtb bLac sens = -6.1
> O=C(C[C@@H]1C/C=C\C[C@H](Cc2ccc(F)cc2)C(=O)OCCNC1=O)N[C@H](CO)Cc1ccccc1
  Mtb bLac sens = -1.8
> CC1CCC(NC(=O)CSc2nncn2C)CC1 (stereo not drawn)
  Mtb bLac sens = -11.3
> CNC[C@H]1Oc2c(NC(=O)C3CCCCC3)cccc2C(=O)N([C@H](C)CO)C[C@@H]1C
  Mtb bLac sens = -11.3
> COc1ccc(CNC(=O)CN(C(=O)c2csnn2)c2cccc(F)c2)cc1
  Mtb bLac sens = 6.8
> CC(NS(=O)(=O)c1ccc(Cl)cc1)C(=O)OCC(=O)c1ccc[nH]1 (stereo not drawn)
  Mtb bLac sens = -0.2
> CCOc1ccccc1N1CC(C(=O)NC2CCCCCC2)CC1=O (stereo not drawn)
  Mtb bLac sens = -9.4
> Cc1ccc(C2(C)NC(=O)N(CC(=O)N3CCN(C(=O)c4cccs4)CC3)C2=O)cc1 (stereo not drawn)
  Mtb bLac sens = -5.0
> COc1cccc(NC(=O)CN(C)C(=O)c2ccc(N3CCCCC3)c([N+](=O)[O-])c2)c1
  Mtb bLac sens = 2.3
> CS(=O)(=O)N(CC(=O)N1CCOCC1)c1ccc(Cl)cc1
  Mtb bLac sens = 3.0
> COC(=O)C1=C(c2ccc(OCc3ccccc3)cc2)C[C@@H]2CC[C@H]1N2C(=O)NCc1ccc([N+](=O)[O-])cc1
  Mtb bLac sens = 2.2
> O=C(COC(=O)Cc1cccs1)NCC(=O)Nc1ccc(F)cc1
  Mtb bLac sens = 3.6
> CCOc1ccccc1N1CCN(C(=O)c2ccccc2OCc2c(C)noc2C)CC1
  Mtb bLac sens = -0.6
> CC(NC(=O)COC(=O)c1c[nH]c2ccccc12)c1ccccc1 (stereo not drawn)
  Mtb bLac sens = -5.9
> O=C1CCCN1CCC(=O)N1CCCC(N2CCN(c3ccccc3F)CC2)C1 (stereo not drawn)
  Mtb bLac sens = -6.4
> COc1cc2c(cc1OC)CN(C(=O)CCC(=O)c1ccc(F)cc1)CC2
  Mtb bLac sens = 0.0
> CC(C)(C)OC(=O)C[C@@H]1C/C=C\C[C@@H](CC(=O)N(CCO)Cc2ccccc2)C(=O)N[C@H](Cc2c[nH]c3ccccc23)COC1=O
  Mtb bLac sens = 4.7
> COc1ccc(C)cc1NC(=O)CO/N=C(\N)CC(=O)NC1CCCCC1
  Mtb bLac sens = -9.7
> COc1cc(OC)cc(C(=O)OCC(=O)c2cc(C)n(CC3CCCO3)c2C)c1 (stereo not drawn)
  Mtb bLac sens = 0.0
> C[C@H](CO)N1C[C@H](C)[C@@H](CN(C)C(=O)Nc2ccc3c(c2)OCO3)Oc2c(NC(=O)Nc3ccc(C(F)(F)F)cc3)cccc2C1=O
  Mtb bLac sens = 26.0
> N#Cc1ccc(OCC(=O)OCC(=O)NC2CC2)cc1
  Mtb bLac sens = -0.8
> O=C(Cc1ccc(S(=O)(=O)N2CCOCC2)s1)N1CCN(c2ccc(C(F)(F)F)cc2[N+](=O)[O-])CC1
  Mtb bLac sens = 9.0
> Cc1c(NC(=O)COC(=O)Cc2ccc(Br)cc2)c(=O)n(-c2ccccc2)n1C
  Mtb bLac sens = -2.9
> Cc1ccc(S(=O)(=O)N2CCN(C(=O)c3ccccc3OCc3c(C)noc3C)CC2)cc1
  Mtb bLac sens = 6.9
> COc1cc(C(=O)Nc2ccc(C)cn2)ccc1OCC(=O)N1CCOCC1
  Mtb bLac sens = 3.0

An excerpt from above in order of molecular weight, descending:
> CN(C(=O)c1ccc(NC(=O)Cc2cccc(NC(=O)C3CCCN(C(=O)C4CCCCC4)C3)c2)cc1)C1CCCC1 (stereo not drawn)
  Mtb bLac sens = -6.1
> COc1cc(OC)cc(C(=O)OCC(=O)c2cc(C)n(CC3CCCO3)c2C)c1 (stereo not drawn)
  Mtb bLac sens = 0.0
> CCOc1ccccc1N1CC(C(=O)NC2CCCCCC2)CC1=O (stereo not drawn)
  Mtb bLac sens = -9.4

(more compounds)
> CC(=O)Nc1ccc(SC[C@H](C)CN2CC[C@H](C(C)(C)C)CCC2=O)cc1
  Mtb bLac sens = 1.2
> COCc1ccc(C(=O)Nc2cccc(S(=O)(=O)N(C)c3ccccc3)c2)cc1
  Mtb bLac sens = -6.7
> COc1ccc(NC(C)=O)cc1S(=O)(=O)N(C)Cc1c(C)nn(-c2ccccc2)c1C
  Mtb bLac sens = -5.0
> Cc1c(C(=O)N2CCC2)oc2ccc(Br)cc12
  Mtb bLac sens = -1.4
> Cc1cccc(NC(=O)c2cccc(N3C(=O)C4C5C=CC(C6CC56)C4C3=O)c2)c1 (stereo not drawn)
  Mtb bLac sens = ?
> Cn1nccc1C(=O)N1CCCC(N2CCN(c3cccc(C(F)(F)F)c3)CC2)C1 (stereo not drawn)
  Mtb bLac sens = ?
> O=C(NNC(=O)c1ccccc1Br)c1cccs1
  Mtb bLac sens = -0.8
> O[C@H]1c2ccccc2[C@H](Cc2cncs2)[C@@H]1Br
  Mtb bLac sens = -2.1
> Cc1ccc(S(=O)(=O)Nc2ccccc2-c2nc3ccccc3[nH]c2=O)cc1
  Mtb bLac sens = -4.2
> O=C(N[C@H]1CCC(=O)N(CCSc2ccc(Br)cc2)CC1)OCc1ccccc1
  Mtb bLac sens = ?
> COc1ccc(-n2cnnc2SCC(=O)Nc2cccc(S(N)(=O)=O)c2)cc1
  Mtb bLac sens = -6.0
> COc1ccc(CN(C)C(=O)CCc2ccc(S(=O)(=O)N3CCCCCC3)cc2)c(OC)c1
  Mtb bLac sens = -0.7
> Cc1ccc(S(=O)(=O)N2CCOCC2)cc1NC(=O)COC(=O)c1ccc(Cl)nc1
  Mtb bLac sens = -3.2
> Cc1ccc(C(=O)CN(CCCC(N)=O)S(=O)(=O)c2ccc([N+](=O)[O-])cc2)cc1
  Mtb bLac sens = -5.8
> COc1cc2c3cc1Oc1cc(ccc1O)C[C@@H]1c4c(cc(OC)c(O)c4Oc4cccc(c4)C[C@@H]3N(C)CC2)CC[N+]1(C)C
  Mtb bLac sens = -4.0
> COc1ccc(CN(C)C(=O)COC(=O)c2c(C)nn(-c3ccc(F)cc3)c2Cl)cc1
  Mtb bLac sens = 6.5
> CC(Sc1nnc(-c2ccccc2)c(-c2ccccc2)n1)C(=O)NCC1CCCO1 (stereo not drawn)
  Mtb bLac sens = 1.0
> C=CC[C@@H](CC(=O)N(CCO)Cc1ccccc1)C(=O)N[C@@H](COC(=O)[C@@H](CC=C)Cc1ccc(F)cc1)Cc1c[nH]c2ccccc12
  Mtb bLac sens = 5.6
> CN(C(=O)c1ccc(NC(=O)Cc2ccc([N+](=O)[O-])cc2)cc1)C1CC1
  Mtb bLac sens = 9.4
> CCCc1ccc(C(=O)COC(=O)CN2C(=O)NC3(CCCCC3C)C2=O)cc1 (stereo not drawn)
  Mtb bLac sens = -1.8
> Cc1ccsc1C(=O)OCC(=O)NC1CC1
  Mtb bLac sens = 10.6
> Cc1cccc(OCc2nnc(SCC(=O)N(c3ccccc3)C3CCS(=O)(=O)C3)o2)c1 (stereo not drawn)
  Mtb bLac sens = -1.5
> Cc1ccc(S(=O)(=O)N2[C@@H](c3ccc(Cl)c(Cl)c3)C(C(=O)O)=C[C@H]2CC2CCCC2)cc1
  Mtb bLac sens = 2.5
> COc1ccccc1N1CCN(C(=O)c2cccc(S(=O)(=O)NCc3cccnc3)c2)CC1
  Mtb bLac sens = -7.8
> COc1ccccc1/C=C/C(=O)OCC(=O)NC1CCCCCCC1
  Mtb bLac sens = 12.0

> COc1cc(OC)cc(C(=O)OCC(=O)c2ccc(S(=O)(=O)N3CCCCC3)cc2)c1
  Mtb bLac sens = -1.5
> O=C(c1cc(S(=O)(=O)N2CCOCC2)c(Cl)cc1Cl)N1CCN(S(=O)(=O)c2cccc(F)c2)CC1
  Mtb bLac sens = -1.9
> O=C(COC(=O)c1ccc(-n2cnnn2)cc1)Nc1cc(Cl)ccc1F
  Mtb bLac sens = 12.8
> Cc1cc(C(=O)OC(C)C(=O)NC2CCCCC2)c(C)o1 (stereo not drawn)
  Mtb bLac sens = -1.8
> COC(=O)[C@]1(C)N[C@H](CN(C)C(=O)Nc2ccc(C(F)(F)F)cc2)[C@@H]2C(=O)N(C)C(=O)[C@@H]21
  Mtb bLac sens = -9.1
> O=C(OCc1c(F)cccc1Cl)c1cnc2ccccc2n1
  Mtb bLac sens = 42.8
> CCOC(=O)C1CCN(C(=O)C(C)Oc2ccc(C(=O)c3ccccc3)cc2)CC1 (stereo not drawn)
  Mtb bLac sens = -3.4
> O=C1CCc2cc(S(=O)(=O)Nc3ccccc3)ccc2N1
  Mtb bLac sens = -0.5
> COc1ccc(S(=O)(=O)NC(CC(C)C)C(=O)NC(C)c2cccs2)cc1 (stereo not drawn)
  Mtb bLac sens = 1.0
> COCCN(C(=O)CN1CCc2ccccc21)c1c(N)n(Cc2ccccc2)c(=O)[nH]c1=O
  Mtb bLac sens = -7.6
> O=C1CCN(Cc2ccccc2)C=C1c1ccc(C(F)(F)F)cc1
  Mtb bLac sens = 4.7
> Cc1cc(C)c(NC(=O)CNC(=O)c2ccc3c(=O)n4c(nc3c2)CCC4)c(C)c1
  Mtb bLac sens = -6.5
> Cc1ccc(CCN2CCN=C2Nc2ccccc2)cc1
  Mtb bLac sens = -1.8
> CCCCN(C(=O)C1CSC2(C)CCC(=O)N12)c1c(N)n(CC(C)C)c(=O)[nH]c1=O (stereo not drawn)
  Mtb bLac sens = 0.7
> O=C(c1ccco1)N1N=C(c2ccc(Br)cc2)CC1c1ccco1 (stereo not drawn)
  Mtb bLac sens = 5.4
> CS(=O)(=O)c1ccc(Cl)c(NC(=O)C2CCN(S(=O)(=O)c3cccs3)CC2)c1
  Mtb bLac sens = 4.1
> CCN1C(=O)c2cccc3c(S(=O)(=O)N4CCC(C)CC4)ccc1c23
  Mtb bLac sens = -4.8
> Cc1cc(C)c(CN2CCN(C(=O)Cn3cnc4c(OCc5ccccc5)ncnc43)CC2)c(C)c1
  Mtb bLac sens = 83.7
> CC(Oc1cccc(F)c1)C(=O)Nc1ccc(N2CCOCC2)cc1 (stereo not drawn)
  Mtb bLac sens = -9.4
> N#CC1(NC(=O)CSc2nnc(Nc3ccccc3F)s2)CCCC1
  Mtb bLac sens = 0.1
> C[C@@H]1CCCCCCCCC(=O)OCCN(C(=O)OC(C)(C)C)[C@H](C)CCCCCCCCC(=O)OCCN(C(=O)OC(C)(C)C)[C@H](C)CCCCCCCCC(=O)OCCN(C(=O)OC(C)(C)C)[C@H](C)CCCCCCCCC(=O)OCCN1C(=O)OC(C)(C)C
  Mtb bLac sens = 6.7
> CCN(Cc1ccccc1)Cc1ccc(OCc2ccccc2)cc1
  Mtb bLac sens = 1.7
> O=C(COC(=O)c1cc(Br)ccc1O)NNC(=O)c1cccs1
  Mtb bLac sens = -9.4
> Cc1ccccc1[C@@]1(C)ON(c2ccccc2C(F)(F)F)C1=O
  Mtb bLac sens = 10.0
> O=C(Cc1ccc(Cl)cc1)OCC(=O)c1ccc[nH]1
  Mtb bLac sens = 57.5
> COc1ccc(NC(=O)Nc2cccc3c2O[C@H](CN(C)Cc2ccc(-c4ccccc4)cc2)[C@@H](C)CN([C@H](C)CO)C3=O)cc1
  Mtb bLac sens = 7.6
> O=C(Nc1ccc(F)c(S(=O)(=O)N2CCOCC2)c1)C1CCCCC1
  Mtb bLac sens = 4.1

No new results follow: entries from further up.
> COc1cc(OC)cc(C(=O)OCC(=O)c2ccc(S(=O)(=O)N3CCCCC3)cc2)c1
  Mtb bLac sens = -1.5
> O=C(c1cc(S(=O)(=O)N2CCOCC2)c(Cl)cc1Cl)N1CCN(S(=O)(=O)c2cccc(F)c2)CC1
  Mtb bLac sens = -1.9
> O=C(COC(=O)c1ccc(-n2cnnn2)cc1)Nc1cc(Cl)ccc1F
  Mtb bLac sens = 12.8
> Cc1cc(C(=O)OC(C)C(=O)NC2CCCCC2)c(C)o1 (stereo not drawn)
  Mtb bLac sens = -1.8
> COC(=O)[C@]1(C)N[C@H](CN(C)C(=O)Nc2ccc(C(F)(F)F)cc2)[C@@H]2C(=O)N(C)C(=O)[C@@H]21
  Mtb bLac sens = -9.1
> O=C(OCc1c(F)cccc1Cl)c1cnc2ccccc2n1
  Mtb bLac sens = 42.8
> CCOC(=O)C1CCN(C(=O)C(C)Oc2ccc(C(=O)c3ccccc3)cc2)CC1 (stereo not drawn)
  Mtb bLac sens = -3.4
> O=C1CCc2cc(S(=O)(=O)Nc3ccccc3)ccc2N1
  Mtb bLac sens = -0.5
> COc1ccc(S(=O)(=O)NC(CC(C)C)C(=O)NC(C)c2cccs2)cc1 (stereo not drawn)
  Mtb bLac sens = 1.0
> COCCN(C(=O)CN1CCc2ccccc21)c1c(N)n(Cc2ccccc2)c(=O)[nH]c1=O
  Mtb bLac sens = -7.6
> O=C1CCN(Cc2ccccc2)C=C1c1ccc(C(F)(F)F)cc1
  Mtb bLac sens = 4.7
> Cc1cc(C)c(NC(=O)CNC(=O)c2ccc3c(=O)n4c(nc3c2)CCC4)c(C)c1
  Mtb bLac sens = -6.5
> Cc1ccc(CCN2CCN=C2Nc2ccccc2)cc1
  Mtb bLac sens = -1.8
> CCCCN(C(=O)C1CSC2(C)CCC(=O)N12)c1c(N)n(CC(C)C)c(=O)[nH]c1=O (stereo not drawn)
  Mtb bLac sens = 0.7
> O=C(c1ccco1)N1N=C(c2ccc(Br)cc2)CC1c1ccco1 (stereo not drawn)
  Mtb bLac sens = 5.4
> CS(=O)(=O)c1ccc(Cl)c(NC(=O)C2CCN(S(=O)(=O)c3cccs3)CC2)c1
  Mtb bLac sens = 4.1
> CCN1C(=O)c2cccc3c(S(=O)(=O)N4CCC(C)CC4)ccc1c23
  Mtb bLac sens = -4.8
> Cc1cc(C)c(CN2CCN(C(=O)Cn3cnc4c(OCc5ccccc5)ncnc43)CC2)c(C)c1
  Mtb bLac sens = 83.7
> CC(Oc1cccc(F)c1)C(=O)Nc1ccc(N2CCOCC2)cc1 (stereo not drawn)
  Mtb bLac sens = -9.4

A portion of the library, so the mix of outcomes need not match the whole.
